# High-throughput results (PubChem BioAssay)
# A1 inhib – blocks A1 activity; MEF A1-2A-BIM cells, caspase-Glo luminescence, 3 h; percent of clofoctol signal, DMSO as zero; caspase activation, % (no concentration beside the values); 21,000 compounds, 0.51% hits;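 active means most replicate scores above 10, or exactly half above 10 with mean activity above 10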;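 further: effector caspase 3 and 7 activity cleaving a DEVD luciferin substrate; 50 nL library stock added to about 30 µL; numbers are from one replicate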
# BJeLR viability – lowers viability of BJeLR cells. viability loss activity score, % (no concentration beside the values). 30,000 compounds, 0.64% hits. BJeLR fibroblasts viability, CellTiterGlo ATP luminescence, 48 h; HRASV12, hTERT and SV40 LT/ST transformed; in the data active means viability loss activity score above about 50%; about a fifth of its hits are not listed in these tables;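 further: higher score means fewer live cells and less ATP luminescence; stock transfer was 50 or 100 nL into about 30 µL; 0% = vehicle wells and 100% = a reference killing control; one replicate is shown; the record names a cut of 85%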
# * = called active by the depositor; nt = not tested or not shown.
# The line under a structure holds: A1 inhib | BJeLR viability
> COc1ccc(NC(=O)N(C)C[C@@H]2Oc3c(NC(=O)Nc4cccc5ccccc45)cccc3C(=O)N([C@@H](C)CO)C[C@@H]2C)cc1
 : nt | -0.1
> O=C(Nc1ccccc1Cl)c1nc2c(nnn2Cc2ccc3c(c2)OCO3)c(=O)[nH]1
 : nt | 3.3
> C[C@H](CO)N1C[C@H](C)[C@@H](CN(C)S(=O)(=O)c2ccccc2)Oc2c(NC(=O)c3ccncc3)cccc2C1=O
 : nt | 0.0
> O=C(Nc1cccc(NC(=O)c2c(F)cccc2F)n1)c1c(F)cccc1F
 : 0.3 | 4.3
> CN(CC(=O)NCc1ccccc1)S(=O)(=O)c1ccc2c(c1)c(=O)n(C)c(=O)n2C
 : nt | -0.5
> O=C1c2ccccc2CN1CCSC(=S)N1CCSCC1
 : -2.0 | -0.1
> Cc1ccc(-c2cn3c4c(sc3n2)CCCC4)cc1
 : -6.7 | 7.4
> CSC(=Nc1ccc(C)c(C)c1)NC#N
 : -0.6 | 5.2
> COC(=O)/C(=C/c1c[nH]c2ccccc12)NC(C)=O
 : 0.5 | 5.8
> C[C@@H]1CN([C@@H](C)CO)C(=O)c2cccc(NC(=O)NC3CCCCC3)c2O[C@H]1CN(C)CC1CC1
 : nt | -1.2
> O=C(NCc1ccccc1)c1noc2c1CCc1ccccc1-2
 : nt | 0.2
> CCOc1ccc(C2C(C#N)=C(N)Oc3c2ccc(=O)c2c(C)oc(C)c32)cc1 (stereo unspecified)
 : nt | 1.3
> O=c1cc(CSc2ccc(Cl)cc2)c2ccc(O)cc2o1
 : 0.1 | 2.6
> O=C1CC(C2CCCO2)C(=O)N1c1cccc(C(F)(F)F)c1 (stereo unspecified)
 : -0.8 | 3.5
> CC(=O)Nc1ccc(NC(=O)C2(c3ccccc3)CCCC2)cc1
 : 1.0 | -0.5
> C[C@H]1CN([C@@H](C)CO)C(=O)c2cc(NC(=O)Nc3ccc4c(c3)OCO4)ccc2O[C@H]1CN(C)S(=O)(=O)c1ccc(F)cc1
 : -0.7 | -5.0
> CCN=C(Nc1ccc(C(C)(C)C)cc1)SCC1CC1
 : -0.9 | -9.6
> CCOC(=O)c1sc(COc2ccc(C(C)(C)C)cc2)nc1C
 : -1.1 | 3.6
> CC(C)Cc1ccc(S(=O)(=O)N2CC(C)CC(C)C2)cc1 (stereo unspecified)
 : nt | -7.6
> CCOC(=O)c1[nH]c2ccc(OCC)cc2c1CCCN1C(=O)c2ccccc2C1=O
 : -0.8 | 0.4
> CC1(C)C=C(C(N)=O)C(C)(C)N1OC(=O)c1ccco1
 : 0.7 | 0.6
> C[C@H]1CN([C@@H](C)CO)C(=O)c2cccc(NS(=O)(=O)c3ccc(F)cc3)c2O[C@H]1CN(C)C(=O)NC1CCCCC1
 : nt | -0.3
> Cc1nn(C(C)C(=O)N(C)Cc2ccccc2)c(=O)c2c1sc1ccccc12 (stereo unspecified)
 : 0.8 | -0.7
> C[C@@H]1CN([C@H](C)CO)C(=O)c2cc(NC(=O)CCC(F)(F)F)ccc2O[C@H]1CN(C)Cc1ccc(Oc2ccccc2)cc1
 : 0.1 | -3.2
> C[C@H](CO)N1C[C@H](C)[C@H](CN(C)C(=O)Nc2ccccc2)Oc2ccc(NS(C)(=O)=O)cc2C1=O
 : 0.0 | 3.3
> C[C@H](CO)N1C[C@H](C)[C@@H](CN(C)C(=O)Nc2ccc(F)cc2)Oc2c(NC(=O)c3ccncc3)cccc2C1=O
 : nt | 2.5
> c1ccc2c(c1)nc(NCC1CCCO1)c1nnnn12 (stereo unspecified)
 : nt | -2.3
> Cc1nnc(C)n1/N=C/c1cc(Br)cc(Br)c1O
 : nt | -2.5
> CN(C)c1cc[n+](C(=O)N2CCOCC2)cc1
 : 0.4 | 0.5
> O=c1[nH]c2cc(Cl)c(Cl)cc2[nH]c1=O
 : -0.6 | -0.9
> CC(C)(C)c1nc(-c2ccc(-c3ccon3)s2)no1
 : -4.9 | -3.8
> CCOC(=O)c1cnc(COc2ccc(C(C)(C)C)cc2)[nH]c1=O
 : -0.3 | 1.5
> Cc1ccc(S(=O)(=O)Nc2ccc3c(c2)C(=O)N([C@@H](C)CO)C[C@@H](C)[C@@H](CN(C)CC2CC2)O3)cc1
 : 0.2 | -4.2
> O=C(Nc1cccc(C(F)(F)F)c1)c1ccco1
 : -1.1 | 3.5
> Cc1cc(C)n(-c2ncnc3sc4c(c23)CC(C)CC4)n1 (stereo unspecified)
 : 0.0 | 6.7
> C[C@H](CO)N1C[C@H](C)[C@@H](CN(C)Cc2ccccc2)Oc2c(NC(=O)Nc3ccc(C(F)(F)F)cc3)cccc2C1=O
 : nt | 3.4
> O=C(c1ccc(Oc2ccccc2)cc1)c1nc2c(n1O)CCCC2
 : nt | 2.8
> Cc1nc(C(=O)Nc2ccc(Cl)cc2)sc1C(=O)Nc1ccc(Cl)cc1
 : 0.5 | -10.0
> CCOc1ccccc1C(=O)N1c2ccccc2Sc2ccccc21
 : nt | -2.6
> COc1ccc(S(=O)(=O)Nc2cccc3c2O[C@H](CN(C)C(=O)Nc2cccc4ccccc24)[C@@H](C)CN([C@@H](C)CO)C3=O)cc1
 : nt | 5.9
> C[C@H](CO)N1C[C@H](C)[C@H](CN(C)Cc2ccccc2)Oc2c(NS(=O)(=O)c3ccc(F)cc3)cccc2C1=O
 : nt | 0.0
> C[C@H]1CN([C@@H](C)CO)C(=O)c2cccc(NC(=O)Nc3cccc4ccccc34)c2O[C@H]1CN(C)Cc1ccc(Cl)c(Cl)c1
 : nt | 4.6
> Cc1c2cnn(-c3ccccc3)c(=O)c2c(C)n1CCCC(=O)NC1CCCCCC1
 : 0.4 | -5.8
> CN1CCc2c(n(CC(O)CNCc3ccccc3)c3ccccc23)C1=O (stereo unspecified)
 : 1.1 | 12
> CC1(C)Oc2ccc3ccc(=O)oc3c2[C@@H](O)[C@H]1O[C@@H]1O[C@H](CO)[C@@H](O)[C@H](O)[C@H]1O
 : -0.8 | -11
> O=C(O)c1ccc(N2N=C(C(F)(F)F)/C(=C/c3ccc(OC(=O)c4cccs4)cc3)C2=O)cc1
 : nt | -3.3
> CCCNC(=O)c1oc(=O)c2ccccc2c1-c1ccc(C)cc1
 : nt | 1.5
> C[C@H](CO)N1C[C@H](C)[C@@H](CN(C)C(=O)Nc2cccc3ccccc23)Oc2ccc(NC(=O)c3ccncc3)cc2C1=O
 : -0.2 | 1.7
> COc1ccc(CN(C)C[C@@H]2Oc3c(NC(=O)Nc4ccc(F)cc4)cccc3C(=O)N([C@@H](C)CO)C[C@@H]2C)cc1
 : nt | 3.1
> C[C@@H]1CN([C@@H](C)CO)C(=O)c2cc(NS(=O)(=O)c3cn(C)cn3)ccc2O[C@H]1CN(C)Cc1ccccc1
 : -0.6 | -0.6
> C[C@H]1CN([C@@H](C)CO)C(=O)c2cccc(NC(=O)Nc3ccc4c(c3)OCO4)c2O[C@@H]1CN(C)Cc1ccc(C(=O)O)cc1
 : nt | -1.5
> CC1(C)CC(NC(=S)Nc2ccc(S(N)(=O)=O)cc2)CC(C)(C)N1
 : 1.7 | -5.5
> O=C(Nn1c(SCc2ccc(F)cc2)nc2ccsc2c1=O)c1ccccc1
 : 0.0 | 8.5
> C[C@@H]1CN([C@H](C)CO)C(=O)c2cccc(NS(=O)(=O)c3ccc(Cl)cc3)c2O[C@H]1CN(C)Cc1ccccc1
 : nt | 1.1
> C[C@@H]1CN([C@H](C)CO)C(=O)c2cc(NC(=O)c3ccncc3)ccc2O[C@@H]1CN(C)S(=O)(=O)c1ccccc1
 : 0.1 | 3.6
> C[C@@H]1CN([C@H](C)CO)C(=O)c2cc(NC(=O)Nc3ccc4c(c3)OCO4)ccc2O[C@@H]1CN(C)Cc1ccccc1
 : 0.8 | 3.8
> C[C@H](CO)N1C[C@H](C)[C@@H](CN(C)S(=O)(=O)c2cccs2)Oc2c(NS(=O)(=O)c3ccc(Cl)cc3)cccc2C1=O
 : nt | 3.9
> O=C(Nc1ccc(-c2ccccc2)cc1)C1CC1c1ccccc1 (stereo unspecified)
 : -0.2 | -13
> CCC1CCCCN1S(=O)(=O)c1ccc(NC(=O)COc2ccc(OC)cc2)cc1 (stereo unspecified)
 : 0.6 | 2.7
> COc1ccc(OCc2c(C#N)c3ccccc3n2C)cc1
 : -4.4 | -5.5

# (further entries)
# The line under a structure holds: A1 inhib | BJeLR viability
> CC(C)CCNC(=O)c1ccc2c(Cl)c3c(nc2c1)CCCC3
 : nt | -8.5
> CNC[C@@H]1Oc2c(NS(=O)(=O)c3c(C)noc3C)cccc2C(=O)N([C@H](C)CO)C[C@H]1C
 : nt | -0.6
> COc1ccc(Nc2nc3ccccc3c(=O)s2)cc1
 : 1.9 | -6.3
> Cc1noc(C)c1NC(=O)N(C)C[C@@H]1Oc2c(NC(=O)c3ccc(-c4nccs4)cc3)cccc2C(=O)N([C@H](C)CO)C[C@H]1C
 : nt | -2.3
> COc1ccc(S(=O)(=O)N(C)C[C@@H]2Oc3ccc(NS(=O)(=O)c4ccc(C)cc4)cc3C(=O)N([C@H](C)CO)C[C@@H]2C)cc1
 : -0.5 | 5.1
> CCc1ccc(N=C2N=C(N)c3ccccc32)cc1
 : 0.1 | 19
> C[C@@H]1CN([C@H](C)CO)C(=O)c2cc(NS(=O)(=O)c3cn(C)cn3)ccc2O[C@@H]1CN(C)Cc1ccncc1
 : -0.7 | 3.1
> O=C(Nc1ccc2nn(-c3ccccc3)nc2c1)C(c1ccccc1)c1ccccc1
 : 0.7 | 0.3
> COc1ccc(S(=O)(=O)N(C)C[C@@H]2Oc3c(NC(=O)NC(C)C)cccc3C(=O)N([C@@H](C)CO)C[C@H]2C)cc1
 : nt | -1.3
> C[C@@H]1CN([C@H](C)CO)C(=O)c2cc(NS(=O)(=O)c3ccc(F)cc3)ccc2O[C@H]1CN(C)Cc1ccc(Oc2ccccc2)cc1
 : 0.2 | -0.8
> C[C@@H]1CN([C@@H](C)CO)C(=O)c2cccc(NC(=O)Nc3ccccc3)c2O[C@H]1CN(C)C(=O)Nc1ccc(C(F)(F)F)cc1
 : nt | -4.7
> O=c1c(-c2ccc(O)cc2)coc2cc(O)cc(O)c12
 : -4.6 | 0.8
> CCN1C(=O)C(=Cc2c(O)n(CC)c(=O)n(CC)c2=O)C(=O)N(CC)C1=O
 : 0.7 | 4.0
> C[C@@H]1CN([C@@H](C)CO)C(=O)c2cc(NC(=O)Nc3ccc(F)cc3)ccc2O[C@@H]1CN(C)S(=O)(=O)c1ccc(F)cc1
 : -0.2 | -1.2
> O=C(Nc1ccccc1)C1CCN(S(=O)(=O)c2ccccc2)CC1
 : 0.9 | -3.5
> C[C@@H]1CN([C@H](C)CO)C(=O)c2cc(NS(=O)(=O)c3ccc(Cl)cc3)ccc2O[C@@H]1CN(C)C(=O)NC1CCCCC1
 : 0.2 | -8.3
> C[C@H](CO)N1C[C@H](C)[C@@H](CN(C)Cc2ccc(Cl)c(Cl)c2)Oc2ccc(NC(=O)c3ccncc3)cc2C1=O
 : 0.9 | -1.3
> COC(=O)C(Cc1c[nH]c2ccccc12)NC(=O)c1ccc(OC)cc1 (stereo unspecified)
 : nt | -1.4
> CCOc1ccc(NS(=O)(=O)N(C)C)cc1
 : 0.7 | -15
> O=C(C1CC1)N1CCc2cc(S(=O)(=O)N3CCCCC3)ccc21
 : nt | -3.0
> O=C1CSc2cc(S(=O)(=O)N3CCC(Cc4ccccc4)CC3)ccc2N1
 : 0.0 | 0.1
> COC(=O)C1=CO[C@@H](O[C@@H]2O[C@H](CO)[C@@H](O)[C@H](O)[C@H]2O)[C@H]2[C@@H]1[C@H](OC(=O)/C=C/c1ccc(O)cc1)C[C@]2(C)OC(C)=O
 : -0.2 | 5.5
> Cc1cc(C(=O)Nc2cccc3c2O[C@H](CN(C)C(=O)NC(C)C)[C@@H](C)CN([C@H](C)CO)C3=O)n(C)n1
 : nt | -2.9
> O=C1CCCN2N=C(SCC(=O)c3ccc(Cl)cc3)SC2=N1
 : nt | -3.8
> COc1ccc(S(=O)(=O)N(C)C[C@H]2Oc3c(NC(=O)c4ccc(-c5nccs5)cc4)cccc3C(=O)N([C@H](C)CO)C[C@@H]2C)cc1
 : nt | 0.8
> CC1CC(=O)c2cc(O)c(O)cc2C1 (stereo unspecified)
 : -0.8 | -1.7
> C[C@@H]1CN([C@H](C)CO)C(=O)c2cccc(NC(=O)Nc3cccc4ccccc34)c2O[C@@H]1CN(C)C(=O)Nc1ccc(C(F)(F)F)cc1
 : nt | -9.1
> C[C@@H]1CN([C@@H](C)CO)C(=O)c2cccc(NC(=O)C3CCCCC3)c2O[C@@H]1CN(C)Cc1ccc2c(c1)OCO2
 : nt | -1.6
> Cc1ccc2oc(=O)c3cc(C(=O)N4CCCCC4)sc3c2c1
 : nt | 1.0
> C[C@@H]1CN([C@H](C)CO)C(=O)c2cccc(NS(=O)(=O)c3cn(C)cn3)c2O[C@H]1CN(C)Cc1ccc2c(c1)OCO2
 : nt | -2.0
> C[C@H]1CN([C@@H](C)CO)C(=O)c2cc(NS(=O)(=O)c3cccs3)ccc2O[C@H]1CN(C)Cc1ccc(Cl)c(Cl)c1
 : 0.4 | 0.8
> C[C@H](CO)N1C[C@H](C)[C@@H](CN(C)CC2CCCCC2)Oc2c(NC(=O)C3CCCCC3)cccc2C1=O
 : nt | -3.5

# Among those listed so far, these contain a furan ring, fused or not:
# The line under a structure holds: A1 inhib | BJeLR viability
> CCOc1ccc(C2C(C#N)=C(N)Oc3c2ccc(=O)c2c(C)oc(C)c32)cc1 (stereo unspecified)
 : nt | 1.3
> CC1(C)C=C(C(N)=O)C(C)(C)N1OC(=O)c1ccco1
 : 0.7 | 0.6
> O=C(Nc1cccc(C(F)(F)F)c1)c1ccco1
 : -1.1 | 3.5

# Look-ups from the entries so far.
# Entry for `O=C(Nc1cccc(NC(=O)c2c(F)cccc2F)n1)c1c(F)cccc1F` under BJeLR viability: 4.3
# Entry for `O=C(C1CC1)N1CCc2cc(S(=O)(=O)N3CCCCC3)ccc21` under BJeLR viability: -3.0

# The list is partial; the hit share may differ from the screen's.
